Source: PubChem BioAssay
StopGo reporter – FMDV 2A StopGo reporter, luciferase signal | human cells with a luciferase reporter of 2A StopGo recoding; control for the full effect not named in the record | Potency, µM (titrated, usually from 57.9 µM), inactives show at the highest dose signal change, negative = less light | 1.2% of 410,000 active | AID 1159524; active = well fitted falling curve with a large enough effect; inconclusive = small, poorly fitted or top-dose-only effect; inactive = no such curve, though single readings can be large or run the other way; tested in HEK293T cells; further: nearly all actives have a fitted effect of over 45% in size; luciferase light after 4 h
RE007 growth inh – less growth of the S. pombe RE007 Vpr strain. S. pombe RE007 Vpr strain, BacTiter-Glo ATP luminescence, 24 h; control for the full effect not named in the record. Potency, µM (highest dose often 92.2 µM), inactives show at the top dose activity change, negative = less growth. 0.21% of 360,000 active. AID 651644; active = well fitted falling curve with a large enough effect; inconclusive = small, poorly fitted or top-dose-only effect; inactive = no such curve, though single readings can be large or run the other way;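 further: nearly all actives have a fitted effect of over 50% in size; the assay follows cell death caused by Vpr and the record does not say whether a fall means rescue or toxicity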
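Fission yeast RE007 carrying one integrated HIV-1 vpr copy, seeded at OD 0.01 in PMG+AL medium with 23 nL pinned compound. Grown 24 h at 30 degrees; viability read by BacTiter-Glo luminescence after 5 min.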
Active calls of the source: *; ? = inconclusive; [ ] = dose if it differs, or a comment. On the % scale 0 is the no-effect control and ±100 the full control effect; potency means the concentration at half of the fitted maximal effect. A portion of the library. The share of hits here may be higher or lower than overall.

| smiles | StopGo reporter | RE007 growth inh |
| --- | --- | --- |
| Cc1ccccc1[C@H](NC1c2ccccc2C=Cc2ccccc21)P(=O)(c1ccccc1)c1ccccc1 | 21% | 5% |
| CC1(C(=O)Nc2ccc3c(c2)OCCO3)CN(S(C)(=O)=O)CC(=O)N1CCc1ccccc1 (stereo not drawn) | 8% | -3% |
| COCCN1C[C@@H](CO)O[C@@H](n2cnc3c(N4CCN(CCO)CC4)ncnc32)C1 | 8% | 2% |
| c1cc(-c2n[nH]c(-c3ccncc3)n2)ccn1 | -7% | -7% |
| Cc1noc(C)c1S(=O)(=O)N(C)C[C@H]1OCc2cnnn2CCCC(=O)N([C@H](C)CO)C[C@H]1C | -8% | -8% |
| COc1cccc(-c2oc3c(c2-c2ccc(Br)nc2)C(O)CCC3)c1 (stereo not drawn) | 2% | ? |
| CCCNC(=O)c1cc(C2CCCN(S(=O)(=O)c3cccc4cccnc34)C2)on1 (stereo not drawn) | -17% | 4% |
| CCOc1ccc(CCN2C(=S)N([C@@H](CC(C)C)CN3CCC[C@@H]3CN3C(=S)NC[C@@H]3Cc3ccc(O)cc3)C[C@@H]2Cc2ccc(O)cc2)cc1 | -23% | -2% |
| CCCC(C)(C)C(=O)N1CCC1(C)C(=O)NS(=O)(=O)c1ccccc1Cl (stereo not drawn) | 9% | 6%[18.4 µM] |
| Cn1nc(C(C)(C)C)cc1C(=O)N1CCCCC1c1cc(C(=O)Nc2ccccc2)no1 (stereo not drawn) | ? | -6% |
| CC[C@H](C)[C@H]1CNC(=O)C(=O)N1CC1CCN(CCc2ccc(Cl)c(Cl)c2)CC1 | -21% | -22% |
| COc1cccc(CNC(=O)[C@@H]2CCCN2C(=O)OC(C)(C)C)c1 | -14% | 7% |
| COCOc1cccc(CN2CCC2(C)C(=O)Nc2ccc(C)c(O)c2)c1 (stereo not drawn) | -22% | 1%[18.4 µM] |
| CC1(C(=O)Nc2cccc(Oc3ccccc3)c2)CCN1Cc1cc2ccccc2o1 (stereo not drawn) | -12% | 7%[18.4 µM] |
| COc1ccc(-c2nc3c(Cl)cc(C(F)(F)F)cn3c2Cc2cccc(F)c2)cc1OC | -6% | -13% |

Full records as entered above. Values in the order: StopGo reporter, RE007 growth inh
`Cc1noc(C)c1S(=O)(=O)N(C)C[C@H]1OCc2cnnn2CCCC(=O)N([C@H](C)CO)C[C@H]1C` reads -8%, -8%
`COc1cccc(CNC(=O)[C@@H]2CCCN2C(=O)OC(C)(C)C)c1` reads -14%, 7%

Further results follow.
| smiles | StopGo reporter | RE007 growth inh |
| --- | --- | --- |
| O=C(NCc1ccccc1)c1ccccc1 | -1% | -9% |
| CN(C(=O)c1ccc(NC(=O)Cc2ccc(NC(=O)C3CCN(C(=O)CCc4ccccc4)CC3)cc2)cc1)C1CCCC1 | ? | 8% |
| C[C@@H]1CN([C@H](C)CO)C(=O)CCCn2nncc2CO[C@H]1CN(C)C(=O)Nc1ccnc(N2CCOCC2)c1 | -3% | -1% |
| C[C@@H]1CN([C@@H](C)CO)C(=O)CCCn2nncc2CO[C@H]1CN(C)Cc1cccc(O)c1 | 1% | 25% |
| CC(C)/C=C/C(=O)N1CCC(N2CCC(C(=O)NCC3CCCO3)CC2)CC1 (stereo not drawn) | -12% | 4% |
| CC1CCN(C(=O)CSc2nnc(-c3ccco3)n2N)CC1 | -16% | 14% |
| CC1(C)OC(=O)C2=C(C[C@@H](C3CC3)O[C@@H]2C2CC2)O1 | -14% | 1% |
| Nc1sc2c(c1C(=O)NCCc1ccccc1)CCCC2 | 29% | -13% |
| COC(=O)[C@]12CCCCC=C1N(Cc1ccc(Cl)cc1Cl)C(=O)[C@H](CC(=O)NCCCCc1ccccc1)C2 | -18% | 7% |
| CCCCNC(=O)c1onc(CSc2cccc(OC)c2)c1C(=O)NCCCC | -8% | -6% |
| CCNC(=O)C1(C)CCCN1C(=O)c1ccc2c(c1)OCO2 (stereo not drawn) | -13% | 3%[18.4 µM] |
| O=P(O)(Cc1ccccc1)c1ccccc1 | -5% | 3% |
| COc1ccc(OC(=O)OCc2ccccc2)cc1 | -15% | -16% |
| COc1ccc(C(=O)CC(Sc2ccccc2N)c2ccc(OC)cc2)cc1 (stereo not drawn) | 41%[activator] | 8% |
| Cc1ccccc1NC(=O)Cc1nc(COC(=O)CNC(=O)c2ccc(Cl)cc2Cl)cs1 | -12% | 0% |
| Cc1nc(NC(=O)C(C)(C)C)sc1C(=O)Cn1cc(CCc2ccccc2)nn1 | 3% | 17% |
| CCNC(=O)Nc1cc(S(=O)(=O)N2CCOCC2)ccc1N1CCCCC1 | -20% | 7% |
| CCCCCCN1C[C@@H](O)[C@H](n2cc(-c3ccc(F)cc3)nn2)C[C@@H]1c1ccc(OC)cc1 | -23% | 5% |
| CCc1ccc2cc(C)cnc2n1 | 4% | 7% |
| COc1ccc(C(C)(O)c2nc(-c3ccc(F)c(Cl)c3)cs2)cc1 (stereo not drawn) | -15% | -60% |
| CC1CN(CCc2ccccc2)C(C)C/C1=N/O (stereo not drawn) | -10% | -7% |
| Cc1cccc(NC(=O)c2nc[nH]c2C(=O)N[C@@H](C)CO)c1 | -11% | -25% |
| O=c1n2c(c(O)n1C1CCCCC1)C(c1ccccc1)=Nc1ccccc1C2 | -18% | 6% |
| COC(=O)C1=C(c2ccccc2)C[C@@H]2CC[C@H]1N2C(=O)NCc1cccc2ccccc12 | -12% | -1% |
| CCOC(=O)C1(C)CCCCCN1C(=O)c1ccc(OC)cc1 (stereo not drawn) | -17% | -5% |
| CCOC(=O)[C@]12CCCC=C1N(Cc1ccco1)C(=O)[C@H](CC(=O)N1CCN(C(=O)C3CC3)CC1)C2 | -21% | 2% |
| NCc1csc(NC(=O)Nc2cccc(Cl)c2)n1 | 14% | -20% |
| COc1ccc(NC(=O)C(c2ccc(C(F)(F)F)cc2)n2c(=O)c(-c3ccco3)nc3ccccc32)cc1 (stereo not drawn) | -5% | -9% |
| COc1ccc(-c2noc(-c3csc([C@@H]4C[C@H](O)[C@@H](CO)O4)n3)n2)cc1OC | 23% | 1% |
| CCCCNC(=O)C1(C)CCCCN1Cc1ccc(OCc2ccccc2)cc1 (stereo not drawn) | 0% | 7%[18.4 µM] |

The closing four records of the section above are carried over, then new ones follow.
| smiles | StopGo reporter | RE007 growth inh |
| --- | --- | --- |
| NCc1csc(NC(=O)Nc2cccc(Cl)c2)n1 | 14% | -20% |
| COc1ccc(NC(=O)C(c2ccc(C(F)(F)F)cc2)n2c(=O)c(-c3ccco3)nc3ccccc32)cc1 (stereo not drawn) | -5% | -9% |
| COc1ccc(-c2noc(-c3csc([C@@H]4C[C@H](O)[C@@H](CO)O4)n3)n2)cc1OC | 23% | 1% |
| CCCCNC(=O)C1(C)CCCCN1Cc1ccc(OCc2ccccc2)cc1 (stereo not drawn) | 0% | 7%[18.4 µM] |
| O=S1(=O)CCN(Cc2ccncc2)CC1 | -6% | 3% |
| O=C1c2ccccc2S(=O)(=O)c2cc(C(=O)N3CCN(c4ccccc4)CC3)ccc21 | -12% | 20% |
| O=C1c2ccccc2-n2nnc(-c3ccccc3)c2C2c3cc(Br)ccc3CCN12 (stereo not drawn) | -7% | 11% |
| C#CCN(C[C@@H]1[C@@H](OC(=O)Nc2c(C)noc2C)[C@@H](OC(=O)Nc2c(C)noc2C)Cn2c(=O)n(CCCCCC)c(=O)n21)S(=O)(=O)c1ccc(C)cc1 | ? | -1% |
| CC(C)COC(=O)N(C)C[C@H]1OCc2cnnn2CCCC(=O)N([C@H](C)CO)C[C@H]1C | 4% | 3% |
| CC(C)CNC(=O)c1[nH]c(C(F)(F)F)nc1-c1ccccc1 | -20% | 27% |
| O=c1[nH]c2ccccc2n1C1CCN(C(c2ccnc3ccccc23)c2nnnn2Cc2ccccc2)CC1 (stereo not drawn) | 0% | 9% |
| CC(=O)Nc1cc(-c2ccc(C(=O)N3CCOCC3)cc2)cn2c(-c3cccc(C(C)=O)c3)cnc12 | -4% | -6%[18.4 µM] |
| Cc1ccc(Cn2c(C(C)Nc3nc(-c4ccc(Cl)c([N+](=O)[O-])c4)cs3)nc3cc(C(F)(F)F)ccc32)cc1 (stereo not drawn) | -23% | -3% |
| CSc1ncnc2c1ncn2CCCNCc1cccc2ccccc12 | -13% | -28% |
| CCCCCC(=O)N1C[C@@H](n2cc(COC(=O)c3ccccc3)nn2)[C@H](O)C[C@@H]1c1ccc(C)cc1 | 0% | 1% |
| O=C(CCc1c[nH]c2ccccc12)OCC(=O)c1ccccc1 | -8% | 1% |
| O=C1C=C(O)c2c(O)cc(O)c(O)c2C1=O | ? | -2% |
| O=C(NCc1cccc(Cl)c1)C1Cc2c(-c3ccccc3)ccnc2O1 (stereo not drawn) | ? | -10% |
| O=C(NCC[C@H]1CC[C@H](NS(=O)(=O)c2ccc(F)cc2)[C@@H](CO)O1)c1ccc2c(c1)OCO2 | -13% | -20% |
| COC(=O)C1CCN(C2CN(Cc3ccc(F)cc3)S(=O)(=O)C2)CC1 (stereo not drawn) | -13% | -11% |
| CN1OC[C@@H]2CN(S(=O)(=O)c3cccc(C(F)(F)F)c3)[C@H](c3ccc(-c4cccnc4)cc3)C[C@@H]21 | -27% | -2% |
| CC(=O)C1CCC2C3CCC4CC(O)CCC4(C)C3CCC12C#N (stereo not drawn) | -2% | -9% |
| CCOC(=O)[C@]12CCCC=C1N(Cc1ccco1)C(=O)[C@H](CC(=O)NCCc1ccccc1OC)C2 | -14% | 23% |
| CCCCc1c(-c2ccccc2OC)ncn1C1CCCC1 | 0% | ? |
| CCCCc1c(-c2ccc(F)cc2F)ncn1CCc1ccccc1OC | -18% | -25% |
| CCOC(=O)C1=CCN(S(=O)(=O)c2ccccc2Cl)C1c1cccc(C)c1 (stereo not drawn) | -27% | 15% |
| COc1ccc(NC(=O)c2cc(C3CCCCN3C(=O)c3cc(OC)c(C)c(OC)c3)on2)c(C)c1 (stereo not drawn) | -11% | 8% |
| c1ccc(COc2ncnc3c2ncn3CCCN2CCN(Cc3cccc4ccccc34)CC2)cc1 | 28µM* | -11% |
| CCN(CC)C(=O)C1=C(C)N(CCCOC)C(=O)C(CC(=O)NC2CC2)C1 (stereo not drawn) | -21% | -5% |
| CCN(CC)C(=O)c1csc([C@@H]2O[C@H](CO)[C@H](O)[C@H](O)[C@H]2O)n1 | -8% | 1%[18.4 µM] |
| COc1ccc(C(=O)NCC(=O)OCC(=O)c2ccccc2Br)cc1OC | -24% | -7% |
| O=C(C[C@H]1C=C[C@@H](NC(=O)c2ccncc2)[C@@H](CO)O1)NCC1CC1 | -8% | -1% |
| C=C[C@@]1(C)CC(=O)[C@]2(O)[C@@]3(C)[C@@H](O)CCC(C)(C)[C@@H]3[C@H](O)[C@H](OC(C)=O)[C@@]2(C)O1 | ? | 12% |
| COc1cccc(-c2nc3n(n2)CCc2ccccc2-3)c1 | 20% | -26% |
| COc1cc(-c2cnc3c(NC=O)cc(-c4ccccc4Cl)cn23)cc(OC)c1OC | -23% | -5% |
| CCOC(=O)C1CCCN(C(=O)c2cccc3ccccc23)CC1 (stereo not drawn) | 18% | 7%[18.4 µM] |
| C=C1CCN([C@@H](CC(C)C)C(=O)NCc2ccccc2)S(=O)(=O)c2ccccc21 | -4% | 3% |
| O=C1NC[C@H](CCCCN2C[C@H](Cc3ccccc3)N(Cc3ccccc3)C(=O)C2=O)N(CCC2CCCCC2)C1=O | 10% | 3% |
| CCOC(=O)[C@]12CCC=C1N(Cc1ccc3c(c1)OCO3)C(=O)[C@H](CC(=O)NCc1ccc(OC)c(OC)c1)C2 | -11% | -6% |
| CCC(=O)Nc1cc(OC)c(NC(=S)Nc2ccccc2CC)cc1OC | 37%[activator] | -9% |
| CCCS(=O)(=O)NC(=O)C1(C)CCN(C(=O)c2ccco2)C1 (stereo not drawn) | -19% | -16%[18.4 µM] |
| CCc1nc2ccc(C(=O)Nc3ccc(NC(C)=O)cc3)cn2c1N(C)CCCc1ccccc1 | 0% | 2% |
| COc1cc([N+](=O)[O-])ccc1NC(=O)CN1C(=O)NC2(CCCCC2C)C1=O (stereo not drawn) | -15% | 10% |
| CCc1nc2cc(NC(=O)C3(C)CCCN(C(C)=O)C3)ccc2o1 (stereo not drawn) | -1% | 0%[18.4 µM] |
| CC(C)NC(=O)c1ccc(-c2ccc(F)c(F)c2)c2ccoc12 | -4% | -10% |
| COc1ccc(NC(=O)c2cc(C3CCCCN3S(=O)(=O)Cc3ccccc3)on2)c(C)c1 (stereo not drawn) | 30%[activator] | 11% |
| O=c1[nH]c2ccccc2n1C1CCN(Cc2ccc(-c3nc4ccccc4nc3-c3ccccc3)cc2)CC1 | ? | -13% |
| OC[C@@H]1CN(Cc2ccc(Cl)cc2)C[C@H](n2cnc3c(NC4CC4)ncnc32)O1 | -23% | 11% |
| CCCCn1nnnc1C(c1ccccc1)N1CCN(c2ccccc2)CC1 (stereo not drawn) | -10% | -2% |
| CCOC(=O)[C@]12CCC=C1N(Cc1ccc(Cl)cc1Cl)C(=O)[C@H](CC(=O)NCc1ccccc1)C2 | 9% | 7% |
| CCNC(=O)C1(C)CCN(C(=O)c2ccc(C)c(F)c2)C1 (stereo not drawn) | 0% | 11%[18.4 µM] |
| CCCCNC(=O)C(NC(=O)c1cnc(C)cn1)C(=O)c1ccccc1 (stereo not drawn) | -7% | -2% |
| COc1ccc(-c2ccc(C(=O)Nc3ccc(NC(C)=O)cc3)c3occc23)c(C)c1 | -21% | 6% |
